DDE Tn7 FP inh – inhibitors of Tn7 peptide binding to human fibrin DD(E); P02675; inhibition, % at 8.3 µM; AID 720508; 0.13% of 370,000 active; FP displacement of FITC-Tn7 peptide from fibrin DD(E); 0% = median of compound wells per plate;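 active means inhibition above the mean of compounds falling within the control limits plus 3 SD of them, cut at about 14% in these data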;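 further: 0% = plate median of compound wells and 100% = 10 µM Aha-Tn7 peptide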
Target sequence (P02675 whole entry, looked up): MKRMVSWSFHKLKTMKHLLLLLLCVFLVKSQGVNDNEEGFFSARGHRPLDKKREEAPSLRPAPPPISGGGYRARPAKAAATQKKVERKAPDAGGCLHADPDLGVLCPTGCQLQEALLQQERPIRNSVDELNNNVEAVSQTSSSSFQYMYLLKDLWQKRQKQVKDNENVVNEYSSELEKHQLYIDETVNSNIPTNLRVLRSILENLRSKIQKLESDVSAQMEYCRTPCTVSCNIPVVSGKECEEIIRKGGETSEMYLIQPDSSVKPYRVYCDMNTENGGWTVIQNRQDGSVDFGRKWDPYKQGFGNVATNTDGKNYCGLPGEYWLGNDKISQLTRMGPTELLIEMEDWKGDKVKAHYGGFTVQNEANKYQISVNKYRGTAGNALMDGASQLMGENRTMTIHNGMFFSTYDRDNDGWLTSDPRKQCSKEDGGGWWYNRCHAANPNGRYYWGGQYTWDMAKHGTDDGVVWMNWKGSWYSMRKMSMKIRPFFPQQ
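Also added: labelled Tn7 tracer, 0.1 µM; Assay system: human fibrin DD(E) protein; Amount: 2 µM fibrin DD(E); Schedule: 10 min compound pre-incubation, 3 h probe incubation at room temperature; Repeats: one replicate per compound; Read-out basis: percent inhibition; Measured by: fluorescence polarization of the labelled Tn7 tracer.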
KLK7 zymogen act – activators of human kallikrein-7 zymogen. purified proKLK7, EDANS-DABCYL substrate fluorescence; 100% is mature enzyme control, 0% vehicle. activation, % at 7 µM. 0.9% of 370,000 active;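 active means activation above the mean of all tested compounds plus 3 SD, computed per campaign excluding outliers beyond control limits, cut at about 13% in these data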
sPLA2-III inh – Blocks human group III sPLA2 activity; Q9NZ20; QFRET BODIPY PC-A2 liposome hydrolysis, fluorescence; inhibition, % at 12.2 µM; 0.56% of 370,000 active; AID 743126;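 active means inhibition above mean plus 3 SD of compounds lying within the high and low control bounds, cut at about 19% in these data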;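 further: 0% = median of test compound wells and 100% = no enzyme DMSO wells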
DDE Tn6 FP inh – disrupts Tn6 cyclic peptide binding to fibrin D-Dimer-E complex; P02675; 0.21% of 370,000 active; Fibrin DD(E) TRITC-Tn6 fluorescence polarization displacement; inhibition, % at 8.3 µM;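 active means inhibition above a per-campaign cutoff: mean of compounds within control limits plus 3 SD, cut at about 15% in these data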;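 further: 0% = median of all compound wells on the plate and 100% = blocking peptide control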
ARFGAP1 inhibitor – rat ARFGAP1 inhibition; Q62848; Arfgap1-stimulated ARF1 GTP hydrolysis, GDP FP detection; inhibition, % at 16.5 µM; 0.26% of 360,000 active; AID 651572;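 active means inhibition above a per-plate limit, mean inhibition of low control wells plus 3 SD, cut at about 25% in these data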;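 further: 0% = DMSO wells with enzyme and 100% = wells lacking Arfgap1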
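Assay system: purified rat His6-Arfgap1 residues 1-136 (GAP domain); Reagent: human Δ17 ARF1 bound to GTP; Dosing: 16.5 µM single point, 1.26% DMSO; Times: GTP hydrolysis reaction 2 h at 25 °C; Signal: FP, GDP Alexa 633 tracer displaced from anti-GDP antibody, 620/688 nm; Measure: % inhibition from polarization.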
* marks the source's active call; other numbers are inactive results. Only part of the results is shown; count on the stated rates, not on these rows.

The first 5 compounds (preview)
DDE Tn7 FP inh	KLK7 zymogen act	sPLA2-III inh	DDE Tn6 FP inh	ARFGAP1 inhibitor	Structure
6.0	58.8*	-2.6	-4.2	-4.8	CCCc1cc(=O)oc2c(C)c(O)c(CN3CCCCC3)cc12
-1.3	0.0	-3.7	-0.3	-3.3	Cc1ccc(/C(=C\CN2CCCC2)c2ccccn2)cc1
-1.4	-0.3	1.7	-9.5	4.9	CCN(CC)S(=O)(=O)c1ccc(-c2nnc(SCC(=O)N3CCc4ccccc43)o2)cc1
5.2	0.8	9.7	-1.6	3.2	CC(=O)c1cn(Cc2ccccc2)c(=O)n(Cc2ccc(F)cc2)c1=O
2.7	15.4*	2.6	0.7	1.9	COc1ccc(-c2cc(C(F)(F)F)nc(S(C)(=O)=O)n2)cc1OC

This part in full, previewed entries included:
DDE Tn7 FP inh	KLK7 zymogen act	sPLA2-III inh	DDE Tn6 FP inh	ARFGAP1 inhibitor	Structure
6.0	58.8*	-2.6	-4.2	-4.8	CCCc1cc(=O)oc2c(C)c(O)c(CN3CCCCC3)cc12
-1.3	0.0	-3.7	-0.3	-3.3	Cc1ccc(/C(=C\CN2CCCC2)c2ccccn2)cc1
-1.4	-0.3	1.7	-9.5	4.9	CCN(CC)S(=O)(=O)c1ccc(-c2nnc(SCC(=O)N3CCc4ccccc43)o2)cc1
5.2	0.8	9.7	-1.6	3.2	CC(=O)c1cn(Cc2ccccc2)c(=O)n(Cc2ccc(F)cc2)c1=O
2.7	15.4*	2.6	0.7	1.9	COc1ccc(-c2cc(C(F)(F)F)nc(S(C)(=O)=O)n2)cc1OC
1.2	1.4	2.7	-1.7	2.7	CN(C)CCCN1c2ccccc2Sc2ccc(C(F)(F)F)cc21
-1.1	0.2	-0.8	0.9	-7.3	CN/C(=C\[N+](=O)[O-])NCCSCc1ccc(CN(C)C)o1
2.4	-2.3	-18.2	4.1	-2.7	Cc1cc(C)c(/C=C2\C(=O)Nc3ccccc32)[nH]1
1.9	0.0	-1.4	-3.5	-14.6	CC(CS(=O)(=O)c1ccc2c(c1)NC(=O)CS2)C(=O)NCc1ccccc1Cl (centres undefined)
-0.6	-0.2	2.8	-9.0	14.4	NC(=O)C1CCN(C(=O)Nc2ccccc2)CC1
-1.1	0.8	1.9	0.2	0.5	CN1CCN(C(=O)c2ccc(NS(=O)(=O)c3ccccc3)cc2)CC1
-4.7	-0.9	-3.5	5.0	5.6	O=C(c1ccccc1)N1CCN(Cc2ccccc2)CC1
-7.8	-0.2	-1.0	-4.2	-13.4	N#Cc1ccc(CNC(=O)N2CCOCC2)cc1
-1.5	-0.3	1.3	-0.7	-1.6	Cc1cn(Cc2ccccc2)c(=O)[nH]c1=O

Bioassay records as filed in PubChem BioAssay.
